GLA inh pH 4.5: alpha-galactosidase A (human) inhibition, pH 4.5 | P06280 | purified enzyme, 4-MU-alpha-Gal fluorescence, pH 4.5 | activity change, negative = inhibition, % at 105 µM | 230,000 tested, under 10 active | AID 1467; inconclusive = small, poorly fitted or top-dose-only inhibition, or a rising curve; inactive = flat fitted curve, though single readings scatter; no compound was filed as active;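 further: 0% = full activity with enzyme and -100% = basal without enzyme; dose as in the result columns while the protocol names 77 µM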
Target sequence (P06280 whole entry, looked up): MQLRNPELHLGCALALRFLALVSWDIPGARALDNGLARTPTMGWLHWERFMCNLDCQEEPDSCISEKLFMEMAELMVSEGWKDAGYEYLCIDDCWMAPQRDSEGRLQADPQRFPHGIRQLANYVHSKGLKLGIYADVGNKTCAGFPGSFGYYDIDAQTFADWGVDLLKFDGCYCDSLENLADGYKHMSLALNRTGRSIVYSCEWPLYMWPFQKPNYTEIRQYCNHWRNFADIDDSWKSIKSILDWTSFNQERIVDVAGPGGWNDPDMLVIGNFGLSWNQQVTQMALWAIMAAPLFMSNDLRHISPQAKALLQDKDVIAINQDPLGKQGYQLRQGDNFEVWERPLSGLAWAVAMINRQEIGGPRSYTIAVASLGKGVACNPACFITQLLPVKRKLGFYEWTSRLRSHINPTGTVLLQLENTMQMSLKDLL
Numbers without * were called inactive; ? = inconclusive; & = joins results of further samples. Only part of the results is shown; count on the stated rates, not on these rows.

SMILES | GLA inh pH 4.5
Cc1cc(C)c(S(=O)(=O)OC[C@H]2C=CC[C@@H](CCC[C@H]3O[C@H](C(=O)OC(C)C)CC[C@@H]3C)O2)c(C)c1 | 0
CC1=CC(=O)C2=C(C)CCC3C(C)C(=O)OC3C12 (stereo not drawn) | -3
C[C@H]1[C@H]2CC[C@H]3C4CC=C5C[C@@H](N(C)C)CC[C@]5(C)C4CC[C@]23CN1C (stereo partly drawn) | 4
COC(=O)[C@@]1(Cc2ccc(F)cc2)[C@H]2c3cc(C(=O)N(C)C)n(Cc4ccc(S(C)(=O)=O)cc4)c3C[C@H]2CN1C(=O)c1ccccc1 | 0
C[C@@]1(C(NC(=O)Cc2ccc(C(F)(F)F)cc2)c2ccc(-c3ccccc3)cc2)C[C@H]1C1CCCCC1 (stereo partly drawn) | -3
COC(=O)CC1[C@@]2(C)C[C@]34OC5(C)OC6(C7CC(=O)OC(c8ccoc8)[C@]7(C)CCC6(O5)[C@]13C)C(OC(C)=O)[C@]4(OC(C)=O)C2OC(C)=O (stereo partly drawn) | -6
CCc1c2c(nc3cccc(SC)c13)COC2 | -6
NC(N)=NC[C@@H]1COC2(CCCCC2)O1 | -9
CCCCCC1=C2CNC(CCC)(C(=O)OC)C=C2C(C)C1=O (stereo not drawn) | 0
C=CCOC(=O)N[C@@H](CC(C)C)/C(C(=O)OC)=C(\C)NCc1ccccc1 | 1
COc1ccc(CNc2ncncc2-c2ccccc2CN(C)C)c(OC)c1 | 6
O=C(O)CCCC[C@@H]1SC[C@H]2NC(=O)N[C@@H]12 | 4
CC(C)[C@H]1c2ccc(F)cc2CC[C@@]1(CCN(C)CCCc1nc2ccccc2[nH]1)OC(=O)C1CC1 | -15
CN(N=O)C(=O)N[C@H]1C(O)C(O)C(CO)O[C@@H]1O (stereo partly drawn) | 1
CC1=CC(=O)CC(C)(C)C1(O)/C=C/C(C)=C\C(=O)O (stereo not drawn) | -6&7
C[C@@](N)(C(=O)O)c1ccc(P(=O)(O)O)cc1 | -2
O=C1c2cc(Br)ccc2O[C@@H](c2ccc3c(c2)OCO3)[C@@H]1O | -1
C=NC(C(=O)NC1C(=O)N2C1SC(C)(C)C2C(=O)O)c1ccccc1 (stereo not drawn) | 1
COC(=O)C(=Cc1cc(Br)c(OC)c(Br)c1)C(=O)OC | -1
COc1cc(OC)c(C(=O)CCCCN2CCC3(CC2)NC(=O)NC3=O)cc1NS(=O)(=O)c1ccc(C(F)(F)F)cc1 | -6
C[C@H]1Cc2c(COc3ccccc3)nc3c(c2CO1)CN(C(=O)c1cccnc1)CC3 | 4
COc1cccc(OC)c1OCCNC[C@@H]1COc2ccccc2O1 | -24
COC(=O)CNC(=O)C1(CC(C)C)C=CCN1C(C)=O (stereo not drawn) | 0
COCCCCCCCCCCCC(=O)O | -28
COc1ccc2c(c1)OCc1c-2oc2cc(OC)ccc12 | -2

Seven records picked at random from the list so far, as already listed:
SMILES | GLA inh pH 4.5
COC(=O)CC1[C@@]2(C)C[C@]34OC5(C)OC6(C7CC(=O)OC(c8ccoc8)[C@]7(C)CCC6(O5)[C@]13C)C(OC(C)=O)[C@]4(OC(C)=O)C2OC(C)=O (stereo partly drawn) | -6
CC1=CC(=O)CC(C)(C)C1(O)/C=C/C(C)=C\C(=O)O (stereo not drawn) | -6&7
COC(=O)C(=Cc1cc(Br)c(OC)c(Br)c1)C(=O)OC | -1
Cc1cc(C)c(S(=O)(=O)OC[C@H]2C=CC[C@@H](CCC[C@H]3O[C@H](C(=O)OC(C)C)CC[C@@H]3C)O2)c(C)c1 | 0
COC(=O)[C@@]1(Cc2ccc(F)cc2)[C@H]2c3cc(C(=O)N(C)C)n(Cc4ccc(S(C)(=O)=O)cc4)c3C[C@H]2CN1C(=O)c1ccccc1 | 0
C=NC(C(=O)NC1C(=O)N2C1SC(C)(C)C2C(=O)O)c1ccccc1 (stereo not drawn) | 1
C=CCOC(=O)N[C@@H](CC(C)C)/C(C(=O)OC)=C(\C)NCc1ccccc1 | 1

Later entries:
SMILES | GLA inh pH 4.5
CCCC[C@H]1C[C@@H]1[C@@H]1N(P(=O)(c2ccccc2)c2ccccc2)C[C@@](O)(c2ccccc2)CC12CC2 | -13
COc1ccc2[nH]c(C(=O)c3ccccc3)cc2c1 | -11
CC1=C(/C=C/C(=C/C=C/C(C)=C/C(=O)O)c2ccc(C)cc2)C(C)(C)CCC1 | -10
CCCn1c(C)nc2c(N(CCN(C)C)Cc3ccccc3)nc(C)nc21 | -4
CCC1=C2CC[C@H]3C(=O)N(CC)C(=O)[C@H]3[C@H]2[C@@]2(Cc3ccccc3)C(=O)N(CCOC)C(=O)N2C1=O | 3
COC(=O)c1ccc(C(NC(=O)OCc2ccccc2)/C(C)=C/[C@@H](C)C(=O)NCCN2CCOCC2)cc1 (stereo partly drawn) | -3
O=c1ccc2c(OCCCCc3ccccc3)c3ccoc3cc2o1 | -3
O=C(O)[C@H]1C(=CCO)O[C@H]2CC(=O)N12 | 11
COc1cc(C2c3cc4c(cc3C(O[C@@H]3OC5COC(c6cccs6)OC5C(O)C3O)C3COC(=O)C23)OCO4)cc(OC)c1O (stereo partly drawn) | -5
COC(=O)CC1C(C)(C)C2(O)OC34CC2C(=O)[C@@]1(C)C3CC[C@]1(C)C4=CC(=O)OC1c1ccoc1 (stereo partly drawn) | 4
COC(=O)c1ccc(C(NC(=O)OCc2ccccc2)/C(I)=C/[C@@H](C)C(=O)NCC2CC2)cc1 (stereo partly drawn) | 1
COc1ccc(C(=O)O)c(O)c1OC | 0
CS(=O)c1ccc(-c2nc(-c3ccc(F)cc3)c(-c3ccncc3)[nH]2)cc1 (stereo not drawn) | 2&6
CS(=O)(=O)CCCCN=C=S | 0
NC1=NCCCC1 | 0
CC1O[C@@H](O[C@H]2C(Oc3cc(O)c4c(c3)OC(c3ccc(O)cc3)CC4=O)OC(CO)C(O)C2O)C(O)C(O)C1O (stereo partly drawn) | 1
COc1ccc2[nH]c(-c3ccc(F)cc3F)cc(=O)c2c1 | -6
COC(=O)N1CC=CC1(C)C(=O)NCc1ccc(C)o1 (stereo not drawn) | -3
COC(=O)[C@@]1(Cc2ccc(OC)cc2)[C@H]2c3cc(C(=O)N(C)C)n(CCc4c[nH]c5ccc(O)cc45)c3C[C@H]2CN1C(=O)c1ccccc1 | -3
C[C@@H](O)CNC(C)(C)CC(=O)N[C@@H]1CCc2ccccc2N(Cc2ccc(-c3ccccc3-c3nn[nH]n3)cc2)C1=O | 1
CO/N=C(/C(=O)NC1C(=O)N2C(C(=O)O)=C(COC(N)=O)CSC12)c1ccco1 (stereo not drawn) | -2
O=C1CCCC2[C@@H]3CCC[N@+]4([O-])CCC[C@H](CN12)C34 (stereo partly drawn) | 3
COc1ccc(/C=C/C(=O)c2cccs2)cc1OC | ?
NC(=O)NCCC[C@H](N)C(=O)O | -2
CCC(C)CCCCC(=O)N[C@@H](CCN)C(=O)N[C@H](C(=O)N[C@@H](CCN)C(=O)N[C@H]1CCNC(=O)C([C@@H](C)O)NC(=O)[C@@H](CCN)NC(=O)[C@H](CCN)NC(=O)[C@H](CC(C)C)NC(=O)[C@@H](CC(C)C)NC(=O)[C@H](CCN)NC1=O)[C@@H](C)O (stereo partly drawn) | -2
SMILES | GLA inh pH 4.5
C=CCSCC(N)C(=O)O (stereo not drawn) | 4
Cc1ccc(S(=O)(=O)N2CCC(=O)N([C@H](COCc3ccc(C(F)(F)F)cc3)Cc3ccccc3)CC2)cc1 | -8
CC(C)[C@@H](CC(=O)N[C@@H]1CCCC[C@H]1C(=O)N[C@H](CC(=O)N[C@@H](CCC(=O)O)CC(=O)O)Cc1c[nH]c2ccccc12)NC(=O)C[C@H](CO)NC(=O)[C@@H]1CNCC[C@H]1N | -5
C=C(C)[C@H]1CC[C@]2(C(=O)O)CC[C@]3(C)[C@@H](CC[C@H]4[C@@]5(C)CC[C@@H](O)C(C)(C)[C@@H]5CC[C@@]43C)[C@H]12 | 2
C[C@@H](C(=O)Nc1ccc2ccccc2c1)[C@@H]1C[C@@]1(C)[C@@H](NS(=O)(=O)c1ccccc1)c1ccccc1 | -8
COC(=O)[C@@]1(Cc2ccc(OC)cc2)[C@H]2c3cc(C(=O)N(C)C)n(Cc4ccccn4)c3C[C@H]2CN1C(=O)c1ccccc1 | 0
CN(C)CCc1c[nH]c2ccc(Cn3cncn3)cc12 | 1
CCN1CCN(C(=O)NC(C(=O)NC2C(=O)N3C2SC(C)(C)C3C(=O)O)c2ccccc2)C(=O)C1=O (stereo not drawn) | 5
C=CCC(C)(NCc1ccccc1)C(=O)OCC (stereo not drawn) | 8
CCOC(=O)C1=C([Si](C)(C)C)c2ccccc2N(S(=O)(=O)C(F)(F)F)C1C(=O)OCC (stereo not drawn) | ?
CC1(C)C2CC[C@@]1(C)C(=O)C2 | 0
CC(C)(C)Nc1oc(-c2ccccc2)nc1-c1ccccc1F | -5
NCCCCNS(=O)(=O)c1ccc2c(Cl)cccc2c1 | -2
NCCCC(N)CC(=O)NCC1NC(=O)C(CO)NC(=O)C(N)CNC(=O)C(C2CCN=C(N)N2)NC(=O)/C(=C\NC(N)=O)NC1=O (stereo not drawn) | 4
Cc1cccc(C(=O)N2CCC(=O)N([C@H](COCc3cccc(Cl)c3)Cc3ccccc3)CC2)c1 | -11
CCCCNc1nc(C)nc2c1nc(-c1ccccc1)n2CC(C)(C)CN(C)C | -26
CC(C)C[C@@H](CC(=O)N[C@@H](CCCN)CC(=O)N[C@@H]1CCCC[C@H]1C(=O)N[C@H](CC(=O)N[C@@H](CCC(=O)O)CC(=O)O)Cc1ccccc1)NC(=O)[C@@H]1CCCC[C@H]1N | -8
COC(=O)[C@@]1(Cc2ccc(OC)cc2)[C@H]2c3cc(C(=O)N(C)C)n(Cc4ccc(O)c(OC)c4)c3C[C@H]2CN1C(=O)c1ccccc1 | -5
CN(C)c1ccc(/C=C2/C(=O)Nc3ccccc32)cc1 | -21
CC1(C)C(=O)C(c2ccccc2)=C2CN3C(=O)N(CCc4ccccc4)C(=O)C3(Cc3ccc(F)cc3)C=C21 (stereo not drawn) | -13
COc1cc(OC)c(C(C)=O)c(O)c1C | 7
CC1C(=O)CCC2[C@]1(C)CCC1[C@]2(C)CC[C@@]2(C)C3CC(C)(C)CC[C@]3(C)CC[C@@]12C (stereo partly drawn) | -4
COC(=O)[C@@]1(Cc2ccc(OC)cc2)[C@H]2c3cc(C(=O)N(C)C)n(Cc4ccc(OC)c(OC)c4)c3C[C@H]2CN1C(=O)c1ccccc1 | -6
C=C(CO)C1Cc2c(ccc3c(=O)c4c(oc23)COc2cc(OC)c(OC)cc2-4)O1 (stereo not drawn) | 1
CCCCc1nc2c(c3c1C[C@H](C)OC3)CN(S(=O)(=O)c1c(C)noc1C)CC2 | 1
SMILES | GLA inh pH 4.5
Cc1cccc(CNc2cc(-c3ccc(C(=O)N(C)C)cc3)ncn2)c1 | 4
COc1cc(CCNC(C)=O)c(C(=O)/C=C/c2cccc(OC)c2OC)cc1OC | -4
N=C(N)c1ccc(N2CCN(C3CCN(CC(=O)O)CC3)CC2)cc1 | 13
CO[C@]1(NC(=O)Cc2cccs2)C(=O)N2C(C(=O)O)=C(COC(N)=O)CS[C@H]21 | -22
COC(=O)[C@@H]1C[C@H]1[C@@H](N)c1ccccc1 | -3
COC(=O)C1(Cc2ccccc2)C=C2C(=C(C)C(=O)C2C)CN1 (stereo not drawn) | -5
COC(=O)[C@@H](N)CSC/C=C(\C)CC/C=C(\C)CCC=C(C)C | -3
OC[C@H]1O[C@@H](n2cnc3c(Nc4ccccc4)ncnc32)[C@H](O)[C@H]1O | -10
CN1CCN(CCCN2c3ccccc3Sc3ccccc32)CC1 | -3
COc1ccc(CNC(=O)[C@H]2C[C@@H]2[C@H](NP(=O)(c2ccccc2)c2ccccc2)c2ccccc2)cc1OC | 2
NC[C@@H]1O[C@H](O[C@H]2[C@H](O)[C@H](O[C@@H]3O[C@H](CO)[C@@H](O)[C@H](N)[C@@H]3O)[C@@H](N)C[C@H]2N)[C@@H](O)[C@H](O)[C@@H]1O | 2
N#CC(=C(\N)Sc1ccccc1N)/C(C#N)=C(/N)Sc1ccccc1N | -5
COC(=O)N1[C@H](C)C=C[C@]1(Cc1ccccc1)C(=O)NCc1ccccn1 | 4
CCCCNC(=O)C(c1ccc(OCC(=O)OC)c(C(=O)OC)c1)N(CCC1=CCCCC1)C(=O)CCCCCN1C(=O)NC(c2ccc(-c3ccccc3)cc2)C(C(=O)OCc2ccccc2)=C1C (stereo not drawn) | -5
O=C(Cc1ccccc1)NO | 0
C[C@H]1COc2c(N3CCN(C)CC3)c(F)cc3c(=O)c(C(=O)NCc4ccco4)cn1c23 | -15
COc1cc(C)c2c(=O)cc(-c3ccccc3)oc2c1 | -3
C/C=C/C(=O)C[C@H]1CC[C@@H](C)[C@@H](CCO)O1 | -10
NC(Cc1c[nH]c2ccccc12)C(=O)O (stereo not drawn) | 2
COC(=O)c1c(C)cc(OC(=O)c2c(C)cc(O)c(C=O)c2O)c(C)c1O | 3
COCCN(CCOC)c1nc(C)nc2c1nc(-c1ccccc1)n2CC1CCN(C)CC1 | 5
CC(C)c1c(O)ccc2c1CCC1[C@@](C)(CO)CCC[C@@]21C (stereo partly drawn) | -2
O=C1NC(O)=NC1(c1ccccc1)c1ccccc1 | -5
OCCN1CCN(CCC=C2c3ccccc3Sc3ccc(Cl)cc32)CC1 | -14
CN(C)c1ccc(-c2nc(N(C)C)c3ccccc3n2)cc1 | -2
COCCN(CCOC)c1nc(C)nc2c1nc(-c1ccccc1)n2CCN1CCOCC1 | 1
O=C(O)C(O)C(O)(Cc1ccc(O)cc1)C(=O)O (stereo not drawn) | 0
CC(=O)Oc1ccc2c(c1)CCC1C2CC[C@]2(C)C(=O)CCC12 (stereo partly drawn) | -2
CCCCCC1=C2CNC(C)(C(=O)OC)C=C2C(C)C1=O (stereo not drawn) | 3
CCCCC/C=C\C/C=C\C/C=C\CCCCC(=O)NCCCC(=O)O | 0

A run of entries from further up:
SMILES | GLA inh pH 4.5
CC(=O)Oc1ccc2c(c1)CCC1C2CC[C@]2(C)C(=O)CCC12 (stereo partly drawn) | -2
CCCCCC1=C2CNC(C)(C(=O)OC)C=C2C(C)C1=O (stereo not drawn) | 3
CCCCC/C=C\C/C=C\C/C=C\CCCCC(=O)NCCCC(=O)O | 0

Screening results as filed in PubChem.
